# Ecoli growth: E. coli growth inhibition, primary screen, OD600; AID 1053175, 2014; OD600 absorbance (test concentration not listed); actives 0.21% (n = 330,000); Escherichia coli growth, 23 h; active compounds read low;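 active = OD600 absorbance below the run mean of sample wells minus 3.6 SD, in any replicate, cut at about 0.56 in these data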;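 also: stock transfer was 300 nL into about 60 µL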
# T cruzi inh: inhibitors of intracellular T. cruzi growth, primary screen, luminescence, NIH3T3 host cells; T. cruzi beta-gal in NIH3T3, 90 h; inhibition, % (no concentration beside the values); actives 1.4% (n = 300,000); AID 1885, 2009;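 active = mean inhibition across valid replicates above about 55%, limit read from the data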;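 also: signal also drops with host cell toxicity which is not excluded here; 0% = plate median of DMSO wells and 100% = zero luminescence signal; higher percent means less beta-gal luminescence so fewer parasites; stock transfer was 50 nL into about 50 µL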
# A1 inh: caspase 3/7 activation in MEF A1-2A-BIM cells, primary screen, A1 inhibitor project, cell-based, luminescence, HTS; Caspase-Glo 3/7 luminescence, 3 h; percent of clofoctol response, vehicle zero; caspase activation, % (test concentration not listed); actives 0.066% (n = 330,000);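 active = over half of replicate activation scores above 10%, or exactly half above 10 with the replicate mean above 10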;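 also: wells of about 30 µL received 50 nL stock; many hits fall short of the cut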
# UCH37 DUB inh: inhibitors of human UCH37 deubiquitinase, primary screen, biochemical, Ub-AMC cleavage, fluorescence; Ubiquitin carboxyl-terminal hydrolase isozyme L5 (Homo sapiens), Q9Y5K5; purified proteasome/UCH37; inhibition, % (no concentration beside the values); actives 0.33% (n = 330,000);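 active = mean of two replicates above 20%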;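 also: 0% = compound-free wells with enzyme and 100% = wells lacking proteasome; stock transfer was 100 nL into about 20 µL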
# Target sequence (Q9Y5K5 whole entry, looked up): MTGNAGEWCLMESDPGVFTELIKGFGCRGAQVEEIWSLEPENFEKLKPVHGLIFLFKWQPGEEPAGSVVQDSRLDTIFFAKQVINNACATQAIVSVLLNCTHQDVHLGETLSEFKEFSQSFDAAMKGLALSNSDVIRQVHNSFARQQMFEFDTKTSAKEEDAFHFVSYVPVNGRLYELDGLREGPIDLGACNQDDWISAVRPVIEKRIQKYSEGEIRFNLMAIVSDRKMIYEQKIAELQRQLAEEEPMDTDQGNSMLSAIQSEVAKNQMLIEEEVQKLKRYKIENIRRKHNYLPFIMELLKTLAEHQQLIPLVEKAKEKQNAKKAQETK
#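 System: Proteasome-associated human UCH37 deubiquitinase; Input: 0.15 nM proteasome in added enzyme buffer; Also added: Ub-AMC substrate from 1 µM stock; Incubation: 30 min compound-proteasome preincubation then 25 min substrate reaction, room temperature; Detection: fluorescence, ex 355 nm, em 460 nm; Read-out: % inhibition of Ub-AMC cleavage fluorescence; Benchmarks: no-proteasome and no-compound wells.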
# AF4-AF9 inh: inhibitors of AF4 peptide binding to AF9, primary screen, biochemical, AlphaScreen, biotin-AF4 peptide, FLAG-AF9, single point. inhibition, % at 10 µM. actives 0.47% (n = 350,000). Protein AF-9 (Homo sapiens), P42568;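 active = every replicate reaching a set inhibition limit, whatever the replicate mean, cut at about 25% in these data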;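 also: 0% = plate neutral control median and 100% = total signal loss; the record names both 10 and 1 µM as test concentration; the first replicate is given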
# Target sequence (P42568 whole entry, looked up): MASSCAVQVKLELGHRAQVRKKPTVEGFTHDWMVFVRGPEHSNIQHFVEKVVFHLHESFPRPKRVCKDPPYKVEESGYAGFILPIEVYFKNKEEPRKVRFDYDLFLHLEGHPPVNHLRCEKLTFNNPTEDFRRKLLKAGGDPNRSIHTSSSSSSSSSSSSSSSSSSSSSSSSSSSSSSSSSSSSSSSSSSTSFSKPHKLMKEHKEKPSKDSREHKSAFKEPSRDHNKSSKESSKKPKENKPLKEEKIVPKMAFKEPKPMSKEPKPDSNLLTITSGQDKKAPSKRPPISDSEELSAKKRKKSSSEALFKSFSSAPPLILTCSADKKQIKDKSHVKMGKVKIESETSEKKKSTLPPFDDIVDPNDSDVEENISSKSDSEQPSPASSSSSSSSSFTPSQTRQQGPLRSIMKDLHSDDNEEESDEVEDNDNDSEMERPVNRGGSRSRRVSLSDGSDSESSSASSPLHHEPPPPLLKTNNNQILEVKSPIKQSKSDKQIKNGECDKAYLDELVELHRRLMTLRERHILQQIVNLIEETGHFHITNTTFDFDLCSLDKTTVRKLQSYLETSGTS
# FGF22 binding: binders of human FGF22 protein, primary screen, FGF22 synaptogenesis inhibitor project, biophysical, thermal shift, single point; recombinant FGF22 thermal shift, SYPRO orange fluorescence; percent of sucrose octasulfate shift, DMSO zero; calls only at 9.99 µM; actives 1.5% (n = 340,000); AID 651658, 2012;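 active = melting point raised past a set limit in the mean and every replicate; three in four hits are not shown here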
# Target sequence (Q9HCT0 whole entry, looked up): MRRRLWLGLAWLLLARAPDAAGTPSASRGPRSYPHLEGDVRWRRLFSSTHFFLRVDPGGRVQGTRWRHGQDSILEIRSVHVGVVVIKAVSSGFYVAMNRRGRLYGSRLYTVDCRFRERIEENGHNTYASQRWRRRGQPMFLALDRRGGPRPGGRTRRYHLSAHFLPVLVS
# Beta apoptosis: inhibitors of cytokine-induced beta cell apoptosis, primary screen, luminescence. actives 0.8% (n = 300,000). protection from apoptosis, % (concentration not given with the values). INS-1E cytokine-induced death, ATP luminescence, 48 h; percent of positive-control rescue, neutral wells zero;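 active = all replicates at 75% or more, or half of them and the mean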;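 also: 0% = cytokine-treated negative control wells and 100% = positive control rescue; higher means more ATP so stronger rescue from cytokine killing; wells of about 40 µL received 100 nL stock; the first replicate is given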
# rRNA inh HTS: reduced GFP signal of wild-type E. coli, primary screen, bacterial rRNA inhibitor project, GFP/RFP fluorescence, OD600, single point. AID 720706, 2013. E. coli WT GFP vs humanized-ribosome RFP mutants, 24 h; active compounds read low; DMSO median 0, no signal -100. actives 1.6% (n = 350,000). GFP signal change (wild-type ribosome), % (concentration not given with the values);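 active = significant combined selectivity score with lowered wild-type GFP, culture density cut under 30%, mutant RFP and density less affected; inactive = any of these conditions unmet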; also: one replicate is shown; some compounds called inactive have numbers as strong as hits
# rRNA inh HTS OD600: further read-out of rRNA inh HTS, marked with its call; OD600 change, %; measured here: OD600 growth;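 optical density of the mix in the first replicate; 0 = DMSO median and -100 = no signal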
# rRNA inh HTS RFP: further read-out of rRNA inh HTS, marked with its call; RFP signal change, %; measured here: RFP humanized mutant strains;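 first replicate; 0 = DMSO median and -100 = no signal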
# Numbers without * were called inactive; i = inactive; x = no result given; & = joins results of further samples. The list is partial (hit frequency here may not be typical).
no.	smiles	Ecoli growth	T cruzi inh	A1 inh	UCH37 DUB inh	AF4-AF9 inh	FGF22 binding	Beta apoptosis	rRNA inh HTS	rRNA inh HTS OD600	rRNA inh HTS RFP
1	COc1ccc(N=Cc2ccc[nH]2)cc1	0.64	-9.1	-0.1	3.0	x	x	-0.1	x	x	x
2	CCn1c(=O)cc(OCC(=O)NC2CCCCC2)c2ccccc21	0.624	1.9	0.4	2.3	x	x	-2.5	x	x	x
3	O=C1N=C(N2CCN(c3ccccc3)CC2)S/C1=C\c1ccco1	x	5.7	0.0	9.2	1.6	i	-1.5	-9.4	-13.1	-7.6
4	Cc1nnc(NC(=O)CSc2nnc(-c3ccoc3C)n2CC(C)C)s1	0.739	-24.6	0.7	5.3	x	x	1.4	x	x	x
5	COc1cc(C(=O)O)cc(NC(=O)c2ccco2)c1OC	0.71	-7.1	0.2	6.3	-24.9	i	-3.8	12.0	12.8	1.1
6	O=C(NCCc1ccccc1)C1CCCN1S(=O)(=O)c1cccc2nsnc12 (centres undefined)	0.67	10.5	0.3	2.8	-20.0	i	2.4	0.5	-5.4	-2.7
7	Cc1ccnc(SCC(=O)N2CCN(C(c3ccccc3)c3ccccc3)CC2)n1	0.671	10.6	1.3	5.0	x	x	-7.8	x	x	x
8	CCOC(=O)C[C@H]1c2ccc(C(F)(F)F)cc2S(=O)(=O)N1C1CCCC1	x	-5.4	-0.2	2.0	x	x	0.2	x	x	x
9	Nc1nonc1-n1nnc(C(=O)N/N=C/c2cccc(F)c2)c1CN1CCCCCC1	x	-3.2	0.0	x	-1.4	i	10.0	3.4	9.7	0.4
10	CN(C)c1ccc(P(=O)(OCc2ccccc2)C(O)c2ccc(Br)cc2)cc1 (centres undefined)	0.669	7.6	0.7	5.6	-3.0	i	-7.8	9.6	0.9	1.1
11	CCc1ccc2c(c1)cc(CN(C(=S)Nc1ccccc1Cl)C1CC1)c1nnnn12	0.729	31.7	0.7	1.6	x	x	-7.6	x	x	x
12	CCOc1c(OC)cccc1C1CC(=O)Nc2cc(OC)c(OC)cc21 (centres undefined)	0.764	-12.1	0.6	2.5	0.7	i	-5.7	-0.2	-2.0	-2.4
13	Cc1cccc(C(=O)Nc2cc(S(=O)(=O)N3CCOCC3)ccc2N2CCCC2)c1	0.667	x	x	-0.4	-16.0	i	x	4.3	12.3	-0.8
14	O=C(Nc1cccc(S(=O)(=O)N2CCOCC2)c1)c1cccc(S(=O)(=O)N2CCCCC2)c1	0.646	x	x	0.9	0.5	x	x	-8.3	2.4	-0.5
15	Cc1cc(C)cc(C(=O)NCC(=O)NCCc2c[nH]c3ccccc23)c1	0.734	3.8	-1.2	-2.4	0.5	x	-11.1	2.4	10.0	4.2
16	COc1ccc(S(=O)(=O)N2CCN(C(=O)c3cccc(Cl)c3)CC2)cc1	0.647	-7.9	0.2	1.3	x	x	3.1	x	x	x
17	COc1ccc(C(=O)Cn2c3ccccc3n3nc(CCC(=O)O)c(=O)nc23)cc1OC	0.673	-18.3	0.6	-25.9	x	x	-5.0	x	x	x
18	Nc1cc(=O)[nH]c(SCCSc2cc(Cl)ccc2Cl)n1	0.688	4.1	0.5	2.5	-21.1	i	0.8	11.7	13.1	0.9
19	CN(Cc1ccccc1)C1CCNCC1	0.628	11.2	0.1	4.8	-0.3	i	-5.8	12.6	10.5	-0.8
20	O=C(CN1CCN(C(=O)C2CCC2)CC1)Nc1ccc(F)cc1	0.696	x	0.6	-1.6	-0.3	i	-0.9	6.0	7.9	-2.5
21	O=C(CSc1nc2ccccc2c(=O)n1NC(=O)Cc1ccccc1)NCc1ccccc1Cl	0.707	27.4	0.3	0.0	x	x	0.8	x	x	x
22	COc1ccccc1C(NC(=O)C1CCCCC1)c1c(O)ccc2ccccc12 (centres undefined)	0.761	14.7	0.3	0.7	0.0	i	-4.5	0.8	-3.3	2.4
23	CCCCSc1nnc(C)c(=O)[nH]1	0.62	-12.4	0.1	3.7	3.6	i	x	3.9	1.9	3.6
24	O=C(Oc1ccc(Cl)cc1N1C(=O)CCC1=O)c1ccco1	0.656	11.6	-1.0	0.2	x	x	-1.5	x	x	x
25	CN(C)c1ccc(/C=N/NC(=O)c2ccc(NC(=O)c3ccccc3)cc2)cc1	x	1.4	0.7	x	0.0	i	13.0	11.5	-6.0	0.2
26	C#Cc1ccc([C@H]2C=C(C(=O)OCC=C)O[C@@H](OCC)[C@@H]2CCCO)cc1	x	1.3	0.8	4.0	-0.4&-0.2	i	-8.7	2.7	3.5	0.8
27	CCCCNc1c(-c2ccc(SC(C)CC)cc2)nc2ccccn12 (centres undefined)	x	37.2	-12.4	x	15.7	i	16.1	-26.3	-40.8	4.5
28	Cc1ccc(C(=O)N/C(=C\c2cn(C)c3ccccc23)C(=O)N2CCOCC2)cc1	0.658	7.7	0.5	12.4	4.8	i	2.1	-1.1	-1.1	2.3
29	COc1cc(C(=O)N/N=C/c2ccc(OC(=O)c3cccc(C)c3)cc2)ccc1O	x	-10.9	0.4	x	0.1	i	-6.8	-13.7	-6.6	0.4
30	Cc1ccccc1NC(=O)Cc1nc(COC(=O)Cc2c(F)cccc2Cl)cs1	0.719	x	-0.8	4.0	2.5	i	0.0	-13.8	-45.9	-7.7

# Shown with one line to a screen: entries from further up.
15	Cc1cc(C)cc(C(=O)NCC(=O)NCCc2c[nH]c3ccccc23)c1
16	COc1ccc(S(=O)(=O)N2CCN(C(=O)c3cccc(Cl)c3)CC2)cc1
17	COc1ccc(C(=O)Cn2c3ccccc3n3nc(CCC(=O)O)c(=O)nc23)cc1OC
18	Nc1cc(=O)[nH]c(SCCSc2cc(Cl)ccc2Cl)n1
19	CN(Cc1ccccc1)C1CCNCC1
20	O=C(CN1CCN(C(=O)C2CCC2)CC1)Nc1ccc(F)cc1
21	O=C(CSc1nc2ccccc2c(=O)n1NC(=O)Cc1ccccc1)NCc1ccccc1Cl

compound no.	15	16	17	18	19	20	21
Ecoli growth	0.734	0.647	0.673	0.688	0.628	0.696	0.707
T cruzi inh	3.8	-7.9	-18.3	4.1	11.2	x	27.4
A1 inh	-1.2	0.2	0.6	0.5	0.1	0.6	0.3
UCH37 DUB inh	-2.4	1.3	-25.9	2.5	4.8	-1.6	0.0
AF4-AF9 inh	0.5	x	x	-21.1	-0.3	-0.3	x
FGF22 binding	x	x	x	i	i	i	x
Beta apoptosis	-11.1	3.1	-5.0	0.8	-5.8	-0.9	0.8
rRNA inh HTS	2.4	x	x	11.7	12.6	6.0	x
rRNA inh HTS OD600	10.0	x	x	13.1	10.5	7.9	x
rRNA inh HTS RFP	4.2	x	x	0.9	-0.8	-2.5	x

# Later entries:
no.	smiles	Ecoli growth	T cruzi inh	A1 inh	UCH37 DUB inh	AF4-AF9 inh	FGF22 binding	Beta apoptosis	rRNA inh HTS	rRNA inh HTS OD600	rRNA inh HTS RFP
31	COc1cc(NC(=O)c2ccc(C)cc2C)ccc1NC(=O)c1cccs1	0.659	5.3	0.2	-20.8	-0.1	i	2.1	2.2	1.0	-2.9
32	CC(OC(=O)c1ccc(Cl)c(S(=O)(=O)N2CCc3ccccc32)c1)C(=O)Nc1ncc(Cl)cc1Cl (centres undefined)	0.719	5.2	-0.2	-0.5	x	x	-9.8	x	x	x
33	O=C(CSc1nc(-c2ccccc2)cs1)Nc1nccs1	0.724	-9.1	-0.4	2.9	x	x	-3.4	x	x	x
34	CCCCCCn1c(=O)c(-c2ccccc2)c(O)c2ccccc21	0.729	-14.3	-1.1	1.5	x	x	-0.7	x	x	x
35	C#CCN1C=C(C(=O)OCC)C(C)N(Cc2ccccc2I)S1(=O)=O (centres undefined)	0.724	x	x	0.1	-5.3	i	x	-16.9	-25.3	-5.2
36	O=C1CCCN1C(=O)CSc1nnnn1-c1cccc(F)c1	0.678	x	-0.6	2.5	0.4	i	0.2	5.9	8.2	-6.0
37	COc1nc(Nc2ccc(OC)c(Cl)c2)nc(OC)n1	0.726	-9.1	0.4	5.5	x	x	6.3	x	x	x
38	COc1ccc(NC2c3ccccc3C(=O)N2c2cccnc2)cc1 (centres undefined)	0.669	-8.0	-0.2	-1.3	-47.8	i	-5.9	6.1	9.2	15.2
39	COc1ccc(N2CCC(CNS(=O)(=O)c3cccc(C(F)(F)F)c3)C2)cc1 (centres undefined)	0.67	x	0.1	2.0	x	x	0.2	x	x	x
40	CCN(Cc1ccncc1)C(=O)c1cccc(S(=O)(=O)N2CCOCC2)c1	0.694	5.5	0.5	4.6	x	x	-2.7	x	x	x
41	C=CCN1C(=O)CN=C1Nc1cccc(C)c1	0.766	-10.6	2.2	1.9	x	x	x	x	x	x
42	CC1=C2C(CCS2(=O)=O)CC2(C1)C(=O)OC(C)(C)OC2=O (centres undefined)	0.685	-1.8	0.7	2.4	x	x	x	x	x	x
43	O=C(Nc1nc(-c2cccnc2)cs1)c1ccccc1[N+](=O)[O-]	0.718	1.7	0.6	3.5	-1.9	i	-9.3	9.3	9.4	-0.1
44	O=C(COC(=O)c1ccncc1)c1ccc(Cl)c(Cl)c1	0.681	5.8	0.3	6.1	6.2	i	-4.4	9.8	-2.5	-1.9
45	COc1ccccc1-c1cc(C(=O)N2CCN(S(=O)(=O)c3ccc(C)cc3)CC2)[nH]n1	0.723	13.7	x	3.3	-0.5	i	x	-5.7	-8.1	-0.1
46	CCOC(=O)N1CCN(Cc2nc(-c3cccc(Cl)c3)no2)CC1	0.689	0.2	-0.1	0.2	0.0	i	6.7	-5.2	1.5	-1.7
47	C=CCN(C(=O)CCC(=O)O)C1CC(=O)N(c2ccc(OC)cc2)C1=O (centres undefined)	0.729	-4.3	1.1	-0.9	x	x	-0.4	x	x	x
48	Cc1ccc(OCCCC(=O)N2CCOCC2)cc1	0.719	5.6	0.2	4.8	x	x	2.7	x	x	x
49	COCCN1C(=O)N[C@@H](c2cccc(F)c2)C(C(=O)OC)=C1C	x	-24.0	-0.3	-0.6	-1.4	i	-3.1	14.3	18.1	-3.8
50	O=C(CSCc1ccc([N+](=O)[O-])cc1)Nc1ccc(S(=O)(=O)N2CCCCCC2)cc1	0.697	-0.9	-0.5	1.8	-0.8	i	x	-21.1	-17.2	-3.5
51	COc1cccc(N(C(=O)Cc2cccs2)C(C(=O)NC2CCCC2)c2ccncc2)c1 (centres undefined)	0.658	20.7	-0.4	6.2	2.7	i	2.6	-0.7	-3.0	-0.7
52	CS(=O)(=O)c1ccc(NC(=O)C2CC(=O)N(c3ccc4c(c3)OCCO4)C2)cc1 (centres undefined)	0.717	-7.1	-0.5	-0.6	-5.1	i	-1.3	4.3	7.2	-1.5

# Bioassay records: PubChem BioAssay, several laboratories
